TRPV1 PAM: HTS Assay for Compounds that Act as Potentiators of the Vanilloid Receptor 1. 0.02% of 320,000 active. potentiation, % at 8.33 µM. TRPV1-expressing cells, Fluo-8 calcium influx, capsaicin EC20 potentiation; host cell line not named in the record; control for the full effect not named in the record; active means potentiation above 80%; inconclusive means 30% to 80%; inactive means below 30%; further: 0% is about no effect
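Cells expressing TRPV1 were dye-loaded with Fluo-8 and read kinetically: 10 s baseline, 3 min after compound (agonist portion), then 2 min after EC20 capsaicin (allosteric enhancer portion). Calcium-bound dye fluorescence at 480/520 nm.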
Six1-Eya2 inh: qHTS Assay for Inhibitors of the Six1/Eya2 Interaction. Homeobox protein SIX1 (Homo sapiens) + Protein phosphatase EYA2 (Homo sapiens), …. AlphaScreen GST-Six1/His-Eya2 binding, biochemical; hits give low values; control for the full effect not named in the record. activity change, % (concentration not given with the values). 0.56% of 360,000 active; in the data active = activity change below about -65%; inconclusive = about -30% to -65%; inactive = above about -30%; further: on the % scale 0 is the no-effect control and ±100 the full control effect
Target sequence (O00167 whole entry, looked up): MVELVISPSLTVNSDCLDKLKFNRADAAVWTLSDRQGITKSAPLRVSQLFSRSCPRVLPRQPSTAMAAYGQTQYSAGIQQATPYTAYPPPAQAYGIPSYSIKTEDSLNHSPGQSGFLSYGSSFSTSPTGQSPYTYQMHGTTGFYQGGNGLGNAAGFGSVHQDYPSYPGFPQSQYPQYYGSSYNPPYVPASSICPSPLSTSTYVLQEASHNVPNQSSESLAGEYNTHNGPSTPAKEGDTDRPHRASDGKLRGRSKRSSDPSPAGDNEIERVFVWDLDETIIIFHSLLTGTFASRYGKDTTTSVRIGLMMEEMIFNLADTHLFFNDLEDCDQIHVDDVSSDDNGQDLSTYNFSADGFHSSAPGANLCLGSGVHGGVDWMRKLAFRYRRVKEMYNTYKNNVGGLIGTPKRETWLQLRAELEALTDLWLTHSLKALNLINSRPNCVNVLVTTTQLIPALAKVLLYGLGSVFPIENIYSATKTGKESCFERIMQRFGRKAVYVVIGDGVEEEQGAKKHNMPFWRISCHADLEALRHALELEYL
Target sequence (Q15475 whole entry, looked up): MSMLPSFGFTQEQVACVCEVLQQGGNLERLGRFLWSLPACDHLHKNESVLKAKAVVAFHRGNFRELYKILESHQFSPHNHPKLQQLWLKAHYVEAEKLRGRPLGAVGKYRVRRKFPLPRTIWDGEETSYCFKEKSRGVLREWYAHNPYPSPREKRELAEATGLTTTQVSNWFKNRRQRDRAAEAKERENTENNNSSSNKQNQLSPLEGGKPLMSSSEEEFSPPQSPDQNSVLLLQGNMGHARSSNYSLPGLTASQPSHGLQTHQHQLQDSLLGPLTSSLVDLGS
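Compounds are tested against tagged Six1 and Eya2 proteins bridged by glutathione donor and nickel acceptor beads; after a one-hour incubation at 37 °C without light, AlphaScreen emission is recorded.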
PINK1 modulator: A Quantitative High throughput Screen to Identify Chemical Modulators of PINK1 Expression | Potency, µM (series often up to 76.6 µM), inactives show at the highest dose activation (PINK1 increase), usual class: activators | 0.2% of 410,000 active | AID 624263, 2012 | PINK1 immunofluorescence, high-content cytometry, 24 h; active = well fitted activation curve with a large enough effect; inconclusive = small, poorly fitted or top-dose-only effect; inactive = flat fitted curve, though single readings scatter; cell line not stated here;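 further: potency means the concentration at half of the fitted maximal effect; % of control where 0% means no effect; nearly all actives have a fitted effect of over 65% in size; a mitochondrial uncoupler was the plate control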
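Fluorescence from anti-PINK1 antibody, together with nuclear and cell stains, was scanned on a laser-scanning cytometer. Before staining, stable-line cells were incubated 24 hours with compounds at 5 concentrations; primary antibody 12 h at 10 degrees C.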
D2 agonist: Beta-Arrestin HTS for Positive Allosteric Modulators of the Human D2 Dopamine Receptor: Agonists | D(2) dopamine receptor (Homo sapiens), P14416 | DiscoveRx PathHunter D2 beta-arrestin, luminescence, 90 min; 100% = 57 uM dopamine signal | activation, % (test concentration not listed) | 0.084% of 360,000 active | AID 624465, 2012; in the data active = activation above about 40%; inconclusive = about 15% to 40%; inactive = below about 15%; further: compound concentration not given in the record; the text of the record calls up to 30% inactive
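Agonist mode: compounds alone added to overnight-plated D2 PathHunter cells for 90 min at 37 C, with 57 uM final dopamine (EC100) defining full response. Beta-arrestin recruitment detected by chemiluminescent reagent, read after 1 h at ambient temperature.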
Sfp PPTase inh: qHTS Assay for Inhibitors of Bacillus subtilis Sfp phosphopantetheinyl transferase (PPTase) | 4'-phosphopantetheinyl transferase ffp (Bacillus subtilis), Q9F4F7 | Biochemical Sfp PPTase activity, qHTS | Potency, µM, without a hit: max response, negative = inhibition, actives largely listed as inhibitors | 3.5% of 310,000 active; active means well fitted inhibition curve with a large enough effect; inconclusive means small, poorly fitted or top-dose-only effect, or another doubt; inactive means no such curve, though single readings can be large or run the other way;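 further: the enzyme is Sfp with the accession as filed and its product quenches rhodamine fluorescence; potency means the concentration at half of the fitted maximal effect; 0% = enzyme reaction without inhibitor and -100% = no enzyme wells; top concentration of the series not given in the record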
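With Hepes-Na pH 7.6 buffer containing 10 mM MgCl2, Sfp (15 nM) modified BHQ-2-YbbR (12.5 uM) using rhodamine-CoA (5 uM). Two reads 30 minutes apart at 525/598 nm yielded each well's rate.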
CtBP-E1A inh: qHTS Assay for Inhibitors of the CtBP/E1A Interaction; 0.49% of 340,000 active; AID 651724, 2012; activity change, % (test concentration not listed); AlphaScreen GST-E1A/His-CtBP binding, 1536-well; hits give low values; control for the full effect not named in the record; in the data active means activity change below about -65%; inconclusive means about -30% to -65%; inactive means above about -30%; further: on the % scale 0 is the no-effect control and ±100 the full control effect; compound concentration not given in the record
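AlphaScreen with 125 nM GST-E1A and 125 nM His-CtBP (5X stocks) in Tris pH 8.0, 300 mM NaCl, BSA, Tween 20, TCEP. Compounds preincubated 2 h at 37 deg C, then glutathione donor/nickel acceptor beads added for 1 h at 37 deg C in dark.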
D2 PAM: Beta-Arrestin HTS for Positive Allosteric Modulators of the Human D2 Dopamine Receptor: Potentiators; potentiation, % (test concentration not listed); DiscoveRx D2 beta-arrestin cells, luminescence, 90 min; 100% = 57 uM dopamine signal; AID 624464, 2012; 0.23% of 360,000 active; active = potentiation of 50% or more; inconclusive = 30% to 50%; inactive = 30% or less;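 further: compound concentration not given in the record; tested on top of an EC20 dose of dopamine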
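D2 cells co-treated with compound plus 50 nM dopamine (EC20) for 90 min at 37 deg C to detect potentiation. Beta-arrestin recruitment was read as enzyme-fragment luminescence after 1 h at ambient temperature. Full response was set by 57 uM dopamine.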
The depositor's hits bear a star; ? = inconclusive; nt = no result given; [ ] = dose if it differs, or a comment.

nr	compound	TRPV1 PAM	Six1-Eya2 inh	PINK1 modulator	D2 agonist
1	C/C(CC(=O)Nc1ccc(C)c(Cl)c1)=N\NC(=O)Cc1cccs1	-3.0	-4.3	5.7%	-5.4
2	Cc1ccc(NC(=O)CCCOc2ccccc2)cc1S(=O)(=O)N1CCOCC1	-15.6	0.0	-0.5%	-1.9
3	CC(C)(C)CNC(=O)c1cccc2c1C(=O)c1ccc(-c3cc4ccccc4o3)cc1S2(=O)=O	nt	6.0	16.9%	-2.1
4	Cc1ccc(NCc2cccnc2)cc1	9.0	3.8	-1.8%	-1.5
5	COc1ccccc1NC(=O)CC(NCc1ccccc1)C(=O)O (stereo not given)	9.1	3.2	-0.2%	-1.8
6	N#CCNC(=O)c1nn2c(C(F)(F)F)cc(-c3ccccc3)nc2c1Br	0.5	-8.6	3.4%	-0.1
7	Cc1nn(Cc2ccc(Cl)cc2)c(C)c1NC(=O)C(c1ccccc1)c1ccccc1	5.0	7.1	-0.1%	-0.5
8	O=C(C/C=N\OCc1ccc([N+](=O)[O-])cc1)Nc1ccccc1	-31.9	-0.5	3.0%	-2.4

nr	Sfp PPTase inh	CtBP-E1A inh	D2 PAM
1	18.9%	3.7	-16.3
2	nt	1.0	-2.8
3	nt	-18.9	-6.0
4	9.8%	-2.7	-8.1
5	2.0%	6.0	-4.4
6	3.2%	4.8	-0.7
7	19.3%	-0.9	-1.9
8	15.1%	2.7	-0.6

New compounds follow:
nr	compound	TRPV1 PAM	Six1-Eya2 inh	PINK1 modulator	D2 agonist
9	O=C1Cc2cc(S(=O)(=O)Nc3ccc(N4CCOCC4)cc3)ccc2N1	nt	0.8	0.6%	5.0
10	COCCCNC(=O)CN(Cc1ccc(Cl)cc1)S(C)(=O)=O	14.8	3.9	-2.6%[38.3 µM]	-0.8
11	CC(=O)Oc1ccc(/C=C2/SC(=S)N(Cc3ccccc3)C2=O)cc1	28.0	-0.4	?	7.4
12	CCOc1ccc(-n2c(Cc3cc(=O)[nH]c(=O)[nH]3)nnc2SCC(=O)Nc2nnc(C)s2)cc1	4.4	8.5	-0.2%	-1.2
13	COC(=O)c1cccc(N(C(=O)CNC(=O)c2ccco2)C(C(=O)NC2CCCC2)c2ccco2)c1 (stereo not given)	-23.6	-1.6	1.3%	-1.5
14	COc1ccc(OC)c(S(=O)(=O)Nc2cc(OC)c(Cl)cc2OC)c1	10.2	-4.1	3.9%[38.3 µM]	0.3
15	O=C(O)CCCC(=O)N1CCC(C(O)(c2ccccc2)c2ccccc2)CC1	-7.2	6.9	0.6%	-1.8
16	C#CCOCCOCCOCCNc1nc(N2CCN(C(=O)C([C@@H](C)O)n3cc([C@@H](N)CCCCN)nn3)CC2)nc(N2CCN(C(=O)[C@H](CCCCN)n3cc([C@@H](N)CC(N)=O)nn3)CC2)n1 (stereo not given in full)	nt	-3.9	-0.8%	-4.5

nr	Sfp PPTase inh	CtBP-E1A inh	D2 PAM
9	nt	-12.5	-4.9
10	-4.4%	14.6	-7.2
11	7.8%	-2.6	-0.4
12	-5.0%	0.4	-2.1
13	4.4%	7.5	-7.0
14	-4.9%	0.0	5.5
15	7.6%	-0.3	-29.6
16	nt	-11.6	-15.0

Later entries
nr	compound	TRPV1 PAM	Six1-Eya2 inh	PINK1 modulator	D2 agonist
17	COc1ccc(/C=C2\SC(=O)N=C2N)cc1OC	-4.3	-13.9	8.8%	-5.5
18	COc1ccccc1OCC(=O)Nc1cccc(S(=O)(=O)NC2=NCCCCC2)c1	25.5	-12.9	1.6%	-3.4
19	COC(=O)CSc1nc2ccc(NC(=O)CSc3nnnn3Cc3ccccc3)cc2s1	7.8	-2.7	3.9%	1.1
20	c1ccc(Nc2ccccc2)cc1	21.5	14.8	0.9%	-3.4
21	CCCCNC(=O)C(CC)Sc1nc2sc(C(=O)OC)c(C)c2c(=O)n1N (stereo not given)	nt	1.1	10.1%[38.3 µM]	-4.8
22	O=[N+]([O-])c1ccc(NN=Cc2cccc3ccccc23)nc1	nt	6.1	1.6%	1.2
23	O=C(COC(=O)c1cc(=O)[nH]c2ccccc12)Nc1ccccc1F	nt	4.6	-1.8%	3.6
24	CCCc1nc(NCc2ccccc2)c(C#N)c2c1CCCC2	?	7.2	?	-2.9

nr	Sfp PPTase inh	CtBP-E1A inh	D2 PAM
17	9.7%	nt	-5.1
18	nt	0.0	8.1
19	-6.4%	6.3	-2.2
20	nt	10.4	-13.6
21	50.1µM*	1.3	-3.5
22	nt	5.9	-3.9
23	nt	-3.1	-1.4
24	-27.1%	2.3	-4.9

Additional compounds follow.
nr	compound	TRPV1 PAM	Six1-Eya2 inh	PINK1 modulator	D2 agonist
25	CCOC(=O)c1c(C)[nH]c(C(=O)COC(=O)c2ccc(F)c(S(=O)(=O)N3CCOCC3)c2)c1C	1.0	-1.2	-1.6%	0.0
26	COc1ccc(C(=O)NCCS(=O)(=O)NC2CCCC2)cc1	-0.7	3.5	-0.9%	-1.0
27	COc1ccc(Nc2oc(-c3ccc(OC)cc3)nc2C#N)cc1	-11.6	5.8	2.9%	5.4
28	Cn1c(=O)cc(OCCCC(=O)NCCN2CCN(c3ccccc3F)CC2)c2ccccc21	1.0	-3.0	-1.2%	-2.4
29	COc1ccc(CNC(=O)CN2C(=O)NC(c3ccccc3)(c3ccccc3)C2=O)cc1	nt	-5.7	2.1%	-1.5
30	CCOC(=O)N1CCC(NC(=O)CCC(=O)N2CCOc3ccc(C)cc32)CC1	-0.5	-1.7	1.6%	0.8
31	COc1ccc(C(=O)COC(=O)CNC(=O)c2ccc(OC)cc2)cc1	-2.9	5.0	0.0%	-5.5
32	COc1ccccc1NC(=O)Cc1noc(CN(C)Cc2cccs2)n1	-1.8	-4.8	2.4%	-3.6

nr	Sfp PPTase inh	CtBP-E1A inh	D2 PAM
25	-10.6%	4.1	11.8
26	nt	3.7	-5.9
27	14.4%	-16.4	4.5
28	21.4%	-0.8	-9.1
29	nt	-1.4	-17.1
30	12.2%	-2.8	-23.3
31	13.5%	2.4	-1.9
32	13.3%	-0.5	-27.6

The list continues.
nr	compound	TRPV1 PAM	Six1-Eya2 inh	PINK1 modulator	D2 agonist
33	CN(C)S(=O)(=O)c1ccc(N=Cc2c(C(F)(F)F)[nH]n(C)c2=O)cc1	1.3	3.2	1.8%	-2.2
34	O=C(COC(=O)c1ccc[n+]([O-])c1)Nc1cc([N+](=O)[O-])ccc1Cl	nt	3.7	-1.8%	-0.2
35	Cc1ccc(/C=C2\SC(=S)N(CCC(=O)N3CCOCC3)C2=O)cc1	20.0	2.2	1.8%	0.4
36	COc1ccc(NC(=S)NCC(O)c2ccccc2)c(OC)c1 (stereo not given)	-11.0	-11.2	2.1%	-4.8
37	CC(=O)Nc1ccc(S(=O)(=O)n2nc(C)cc2C)cc1	1.0	3.9	2.6%	-5.4
38	CCOc1ccc(NC(=O)CN(C)C(=O)Cn2c(=O)cnc3ccccc32)cc1OCC	-4.5	-4.4	-1.5%	0.2
39	O=C(CNc1cccc(S(=O)(=O)N2CCCC2)c1)Nc1ccc(F)c(F)c1	-12.1	4.0	1.0%	4.7
40	Cn1c(=O)[nH]c(=O)c2c1nc(CN1CCN(c3ccc(F)cc3)CC1)n2CCc1ccccc1	-4.1	1.5	nt	-1.8

nr	Sfp PPTase inh	CtBP-E1A inh	D2 PAM
33	4.3%	nt	-0.1
34	nt	5.0	-4.0
35	1.5%	2.2	5.8
36	25.4%	-24.7	-2.8
37	8.1%	9.0	-3.9
38	nt	nt	3.1
39	nt	-21.2	11.9
40	5.9%	9.2	-21.6

The final 4 entries of the part before open the next one.
nr	compound	TRPV1 PAM	Six1-Eya2 inh	PINK1 modulator	D2 agonist
37	CC(=O)Nc1ccc(S(=O)(=O)n2nc(C)cc2C)cc1	1.0	3.9	2.6%	-5.4
38	CCOc1ccc(NC(=O)CN(C)C(=O)Cn2c(=O)cnc3ccccc32)cc1OCC	-4.5	-4.4	-1.5%	0.2
39	O=C(CNc1cccc(S(=O)(=O)N2CCCC2)c1)Nc1ccc(F)c(F)c1	-12.1	4.0	1.0%	4.7
40	Cn1c(=O)[nH]c(=O)c2c1nc(CN1CCN(c3ccc(F)cc3)CC1)n2CCc1ccccc1	-4.1	1.5	nt	-1.8
41	COc1ccc(/C=C2\SC(=O)N(CCNC(=O)Cc3coc4cc(OC)ccc34)C2=O)cc1	8.9	-4.8	5.3%	3.4
42	COC(=O)[C@]12CCCCC=C1N(Cc1ccccc1)C(=O)[C@H](CC(=O)NCCCN1CCCC1=O)C2	nt	9.1	0.2%	nt
43	Cc1cc(=O)oc2cc(OCC(=O)N3CC[C@@]4(O)CCCC[C@H]4C3)ccc12	-7.3	-0.3	-0.4%	-5.2
44	O=C(CN=C1NS(=O)(=O)c2ccccc21)OCC(=O)c1ccccc1	-0.4	0.3	-0.9%	-2.7
45	COc1cc(CNCc2ccc(C)cc2)cc(OC)c1OC	-16.6	3.5	0.5%	-2.6
46	CCCNC(=O)NCc1ccc(N2CCCC2=O)cc1	-7.9	3.5	0.7%	-3.2
47	O=C(C[n+]1cccc(/C=N/O)c1)N1CCCc2ccccc21	-13.3	-1.4	0.0%	3.4
48	Nc1cc(S(=O)(=O)O)cc([N+](=O)[O-])c1O	-0.3	-20.2	1.5%	6.8
49	CN(C)CC/C=C1/c2ccc(F)cc2Sc2ccc(Cl)cc21	nt	-16.3	-1.7%	-20.2
50	Cc1ccccc1NC(=O)COC(=O)COc1ccc2c(c1)CCC2	6.0	1.7	1.6%	0.8

nr	Sfp PPTase inh	CtBP-E1A inh	D2 PAM
37	8.1%	9.0	-3.9
38	nt	nt	3.1
39	nt	-21.2	11.9
40	5.9%	9.2	-21.6
41	-8.9%	2.0	9.1
42	nt	-10.3	nt
43	16.1%	0.7	-11.5
44	3.4%	8.1	-3.3
45	-22.3%	-4.2	-5.1
46	18.9%	5.4	-15.8
47	16.5%	-2.2	-15.2
48	79.4µM*	-14.3	8.1
49	nt	-18.1	-19.7
50	nt	8.6	-23.2

Screening results deposited in PubChem by National Center for Advancing Translational Sciences (NCATS).
